Screens: PubChem BioAssay, several laboratories
FGF22 binding = FGF22 (human) thermal shift binding. AID 651658. calls only at 9.99 µM. 340,000 tested, 1.5% active. recombinant FGF22 thermal shift, SYPRO orange fluorescence; percent of sucrose octasulfate shift, DMSO zero;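 active = melting point raised past a set limit in the mean and every replicate; inconclusive = no clear call; three in four hits are not shown here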
Target sequence (Q9HCT0 whole entry, looked up): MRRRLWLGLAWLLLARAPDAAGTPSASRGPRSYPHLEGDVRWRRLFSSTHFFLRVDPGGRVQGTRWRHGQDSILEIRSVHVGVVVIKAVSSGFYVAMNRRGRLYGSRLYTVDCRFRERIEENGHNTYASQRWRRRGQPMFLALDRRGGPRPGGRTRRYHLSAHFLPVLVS
HNF4A DNA FP = change in binding of human HNF4 alpha to DNA. HNF4a-FITC DNA binding, fluorescence polarization, 1 h. activity change, % at 10 µM. 360,000 tested, 0.3% active; in the data active = activity change above about 30%, passing the limit was not always enough;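 note: controls were the assay level and a saturating level of protein; the project sought stronger binding though the title names inhibitors; some compounds called inactive have numbers as strong as hits; positive values seem to mean higher polarization but the record does not say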
Vif TR-FRET = HIV-1 Vif–A3G interaction blockers – biochemical, TR-FRET, GST-Vif 1-94, biotin-A3G peptide, dose response retest, primary screen (AID 1117319); TR-FRET GST-Vif / biotin-A3G peptide binding; higher % means a stronger effect; test concentration not given here; strong numbers were not always called active; 260,000 tested, 0.57% active; inhibition, %, or IC50 in µM where a hit was titrated;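 active = above the screen mean plus three standard deviations and confirmed in dose response; inconclusive = results disagree or hit not tested in dose response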;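 note: Vif residues 1-94 fused to GST binding biotinylated APOBEC3G peptide 110-148; 0% = full assay without inhibitor and 100% = GST in place of GST-Vif; retest series ran down from 100 µM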
Ecoli growth = blocks Escherichia coli growth; OD600, 23 h; active compounds read low; OD600 absorbance (no concentration beside the values); 330,000 tested, 0.21% active;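 active = OD600 absorbance below the run mean of sample wells minus 3.6 SD, in any replicate, cut at about 0.56 in these data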;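 note: stock transfer was 300 nL into about 60 µL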
rRNA inh HTS = inhibitors of bacterial rRNA selective over humanized ribosomes | E. coli WT GFP vs humanized-ribosome RFP mutants, fluorescence, 24 h; active compounds read low; DMSO median 0, no signal -100 | GFP signal change (wild-type ribosome), % (test concentration not listed) | 350,000 tested, 1.6% active;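 active = significant combined selectivity score with lowered wild-type GFP, culture density cut under 30%, mutant RFP and density less affected; inactive = any of these conditions unmet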; note: one replicate is shown; some compounds called inactive have numbers as strong as hits
AF4-AF9 inh = inhibitors of human MLL-AF4/AF9 interaction. AID 651704. inhibition, % at 10 µM. 350,000 tested, 0.47% active. P42568. AlphaScreen, biotin-AF4 peptide binding to FLAG-AF9;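 active = every replicate reaching a set inhibition limit, whatever the replicate mean, cut at about 25% in these data; inconclusive = mean inhibition reaches that limit but some replicates miss it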;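 note: 0% = plate neutral control median and 100% = total signal loss; the record names both 10 and 1 µM as test concentration; the first replicate is given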
Target sequence (P42568 whole entry, looked up): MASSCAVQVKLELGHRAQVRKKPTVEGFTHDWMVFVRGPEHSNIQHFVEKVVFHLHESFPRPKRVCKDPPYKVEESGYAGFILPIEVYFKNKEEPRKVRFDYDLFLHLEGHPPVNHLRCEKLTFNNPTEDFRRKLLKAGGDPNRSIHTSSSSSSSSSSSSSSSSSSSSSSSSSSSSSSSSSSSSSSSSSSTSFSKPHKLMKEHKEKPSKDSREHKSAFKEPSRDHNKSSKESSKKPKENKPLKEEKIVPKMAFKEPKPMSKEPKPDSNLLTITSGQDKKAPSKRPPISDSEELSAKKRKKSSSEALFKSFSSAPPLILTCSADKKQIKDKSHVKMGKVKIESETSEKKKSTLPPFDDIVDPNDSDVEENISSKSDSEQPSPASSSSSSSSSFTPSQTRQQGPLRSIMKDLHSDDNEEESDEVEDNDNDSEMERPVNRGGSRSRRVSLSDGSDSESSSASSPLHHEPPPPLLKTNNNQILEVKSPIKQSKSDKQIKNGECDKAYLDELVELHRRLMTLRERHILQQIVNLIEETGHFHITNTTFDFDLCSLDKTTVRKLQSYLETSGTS
ALR inh = human ALR oxidase inhibition via reduced H2O2; AID 485317; inhibition, % (no concentration beside the values); 290,000 tested, 3.8% active; purified ALR, DTT oxidation, H2O2 HRP-luminol luminescence;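 active = mean and each replicate at 75% or more; inconclusive = only one of the two met; inactive = neither met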;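 note: stock transfer was 7.5 nL into about 7.5 µL; 0% = neutral wells and 100% = wells with inactivated enzyme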
rRNA inh HTS OD600 = recorded beside rRNA inh HTS, whose call it bears; OD600 change, %; measured here: OD600 growth;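 optical density of the mix in the first replicate; 0 = DMSO median and -100 = no signal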
rRNA inh HTS RFP = recorded beside rRNA inh HTS, whose call it bears; RFP signal change, %; measured here: RFP humanized mutant strains;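 first replicate; 0 = DMSO median and -100 = no signal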
Active calls of the source: *; i = inactive; ? = inconclusive; / = not tested or not shown. A portion of the library, so the mix of outcomes need not match the whole.

1) Cc1c(C(=O)O)sc2nc(-c3cccs3)cc(C(F)(F)F)c12
2) CC(=O)N1[C@@H]2c3ccc(C4=CCCCC4)c(=O)n3C[C@@H]2[C@@H](CO)[C@@H]1C(=O)Nc1ccccc1
3) Cc1ccc(C)c(NC(=O)CN(C)C(=O)CN2C(=O)NC3(CCc4ccccc43)C2=O)c1 (centres undefined)
4) CC(C)OP(=O)(OC(C)C)C(Nc1ccc([N+](=O)[O-])cc1)c1cccc([N+](=O)[O-])c1 (centres undefined)
5) C[C@H]1CN([C@@H](C)CO)C(=O)c2cc(NS(=O)(=O)c3ccc(F)cc3)ccc2O[C@@H]1CN(C)S(=O)(=O)c1ccc(Cl)cc1
6) COc1ccc(/C=C/C=C2\N=C(SC)SC2=O)cc1
7) C[C@@H]1CN([C@@H](C)CO)C(=O)c2cc(NC(=O)Nc3ccc(F)cc3)ccc2O[C@@H]1CN(C)C(=O)Nc1ccccc1
8) Cc1ccc2nc3c(c(C(=O)O)c2c1)CCC3

compound no.	1	2	3	4	5	6	7	8
AF4-AF9 inh	-17	-0.9	-0.1	4.2	3.6	3.3	-0.5	2.9
ALR inh	19	/	-1	-3	/	/	/	24
rRNA inh HTS RFP	-20	-0.5	/	4.5	-0.7	37	4.2	-7.2
Vif TR-FRET	/	/	0%	5%	/	2%	/	33%
rRNA inh HTS OD600	-81	2	/	-4	-12	0	-14	1
Ecoli growth	0.69	/	0.73	0.67	/	0.72	/	0.71
FGF22 binding	i	i	i	i	i	i	i	i
HNF4A DNA FP	-0.2	/	2.8	-0.6	/	5.2	/	-5.0
rRNA inh HTS	-61	-3	/	-5	1	11	-8	10

By substructure: the compounds so far with a halogen
1) Cc1c(C(=O)O)sc2nc(-c3cccs3)cc(C(F)(F)F)c12
5) C[C@H]1CN([C@@H](C)CO)C(=O)c2cc(NS(=O)(=O)c3ccc(F)cc3)ccc2O[C@@H]1CN(C)S(=O)(=O)c1ccc(Cl)cc1
7) C[C@@H]1CN([C@@H](C)CO)C(=O)c2cc(NC(=O)Nc3ccc(F)cc3)ccc2O[C@@H]1CN(C)C(=O)Nc1ccccc1

compound no.	1	5	7
AF4-AF9 inh	-17	3.6	-0.5
ALR inh	19	/	/
rRNA inh HTS RFP	-20	-0.7	4.2
Vif TR-FRET	/	/	/
rRNA inh HTS OD600	-81	-12	-14
Ecoli growth	0.69	/	/
FGF22 binding	i	i	i
HNF4A DNA FP	-0.2	/	/
rRNA inh HTS	-61	1	-8

Next section:
9) c1ccc2c(Cn3nnc4ccccc43)cccc2c1
10) CCc1c(C)c2ccc(OC(C)C(=O)NC(Cc3c[nH]c4ccc(O)cc34)C(=O)O)c(C)c2oc1=O (centres undefined)
11) O=C(NNC1CC(=O)N(c2ccc(Br)cc2)C1=O)c1ccco1 (centres undefined)
12) O=C(O)CCCN=Cc1c(O)c2ccccc2oc1=O
13) CC(=O)NC(=S)Nc1ccc(NC(=O)COc2ccc(C(C)C)cc2)cc1
14) Cc1ccc(OCCCC(=O)Nc2ccccc2C(F)(F)F)cc1
15) COc1cc(S(=O)(=O)N(Cc2cccs2)C2CC2)ccc1-n1cnnn1
16) COc1cc(CN(C)Cc2cc(=O)n3ccsc3n2)ccc1OC(F)F

compound no.	9	10	11	12	13	14	15	16
AF4-AF9 inh	/	-1.7	-1.9	-20	0.0	/	-3.3	-0.6
ALR inh	0	-36	0	-7	6	-13	-7	-10
rRNA inh HTS RFP	/	3.0	1.0	1.0	1.3	/	-4.5	1.0
Vif TR-FRET	3%	/	-1%	-1%	-5%	-3%	14%	26%
rRNA inh HTS OD600	/	-1	7	6	1	/	-19	-11
Ecoli growth	0.64	0.74	0.67	0.68	0.68	0.75	0.65	0.7
FGF22 binding	/	i	i	i	i	/	i	i
HNF4A DNA FP	2.0	9.4	0.8	4.2	-0.3	-5.9	1.4	2.2
rRNA inh HTS	/	1	11	4	8	/	-19	4

Part of the list above, set out differently.
[1] Cc1c(C(=O)O)sc2nc(-c3cccs3)cc(C(F)(F)F)c12
  AF4-AF9 inh: -17
  ALR inh: 19
  rRNA inh HTS RFP: -20
  Vif TR-FRET: /
  rRNA inh HTS OD600: -81
  Ecoli growth: 0.69
  FGF22 binding: i
  HNF4A DNA FP: -0.2
  rRNA inh HTS: -61

[2] CC(=O)N1[C@@H]2c3ccc(C4=CCCCC4)c(=O)n3C[C@@H]2[C@@H](CO)[C@@H]1C(=O)Nc1ccccc1
  AF4-AF9 inh: -0.9
  ALR inh: /
  rRNA inh HTS RFP: -0.5
  Vif TR-FRET: /
  rRNA inh HTS OD600: 2
  Ecoli growth: /
  FGF22 binding: i
  HNF4A DNA FP: /
  rRNA inh HTS: -3

An excerpt from above with just AF4-AF9 inh, rRNA inh HTS RFP and Vif TR-FRET:
No. | canonical_smiles | AF4-AF9 inh | rRNA inh HTS RFP | Vif TR-FRET
14 | Cc1ccc(OCCCC(=O)Nc2ccccc2C(F)(F)F)cc1 | / | / | -3%
12 | O=C(O)CCCN=Cc1c(O)c2ccccc2oc1=O | -20 | 1.0 | -1%
9 | c1ccc2c(Cn3nnc4ccccc43)cccc2c1 | / | / | 3%
15 | COc1cc(S(=O)(=O)N(Cc2cccs2)C2CC2)ccc1-n1cnnn1 | -3.3 | -4.5 | 14%
16 | COc1cc(CN(C)Cc2cc(=O)n3ccsc3n2)ccc1OC(F)F | -0.6 | 1.0 | 26%
10 | CCc1c(C)c2ccc(OC(C)C(=O)NC(Cc3c[nH]c4ccc(O)cc34)C(=O)O)c(C)c2oc1=O (centres undefined) | -1.7 | 3.0 | /

Carrying on.
17) CCOC(=O)c1cc(-c2ccc(/C=C3/C(=O)NC(=O)C(C#N)=C3C)o2)ccc1Cl
18) Cc1cccc(NC(=O)CN2CCN(C(=O)C(C)Oc3ccc(C#N)cc3)CC2)c1C (centres undefined)
19) CCN(CC)c1ccc(C(=O)N/N=C/c2ccccc2OC(F)F)cc1
20) Clc1cc(/C=N\NC2=NCCN2)cc(Cl)n1
21) COc1ccc(C(=O)Nc2ccc(-c3nnn(CC(=O)NCc4ccco4)n3)cc2)cc1
22) CC1C(=O)OC(c2ccc(Br)cc2)C(C)(C)C1=O (centres undefined)
23) CN1C(=O)c2cc(NC(=O)Nc3ccccc3F)ccc2OC[C@H]2O[C@@H](CC(=O)Nc3cccc(Cl)c3)CC[C@@H]21
24) CCc1cc2cc(C)cc(C)c2nc1SCC(=O)N1CCN(C(=O)c2ccco2)CC1

compound no.	17	18	19	20	21	22	23	24
AF4-AF9 inh	-31	-0.4	2.2	-3.1	0.9	-1.1	-0.3	/
ALR inh	-20	1	58	-7	2	4	/	-4
rRNA inh HTS RFP	2.7	-2.2	/	-4.6	-2.1	-9.4*	-1.2	/
Vif TR-FRET	?	7%	-7%	/	21%	5%	/	13µM*
rRNA inh HTS OD600	-1	12	/	11	9	-18*	-15	/
Ecoli growth	0.66	0.66	/	/	0.69	0.66	/	0.79
FGF22 binding	i	i	i	i	i	i	i	/
HNF4A DNA FP	-6.8	4.7	1.3	0.0	-0.9	3.6	/	-2.6
rRNA inh HTS	7	4	/	13	11	-43*	-3	/

25) C[C@H]1CCCCO[C@@H](CN(C)C(=O)Nc2ccc3c(c2)OCO3)[C@@H](C)CN([C@@H](C)CO)C(=O)c2cc(NC(=O)c3ccncc3)ccc2O1
26) Nc1nc2cc(Cl)c(Br)cc2o1
27) OC1CCN(Cc2nc(Cc3ccccc3Cl)no2)CC1
28) CC(=O)c1c(-c2ccc(Cl)cc2Cl)noc1C
29) CN(C)CCNc1ncnc2c1ncn2[C@H]1CN(Cc2ccc(-c3ccccc3)cc2)C[C@@H](CO)O1
30) CC(C)COc1ccc(C(=O)CCN2CCCCC2)cc1
31) OCCN1CCN(C(=S)c2ccc(Cl)c(Cl)c2)CC1
32) O=[N+]([O-])c1ccc(-n2ccnc2)cc1

compound no.	25	26	27	28	29	30	31	32
AF4-AF9 inh	-1.1	2.3	-1.5	-0.2	3.7	/	/	1.0
ALR inh	/	/	-4	-11	/	0	/	-22
rRNA inh HTS RFP	0.2	-7.3	-1.1	4.8	8.9	/	/	-2.9
Vif TR-FRET	/	-3%	5%	-2%	/	4%	-9%	-5%
rRNA inh HTS OD600	-2	-35	8	-2	-17	/	/	3
Ecoli growth	/	0.66	0.66	0.67	/	0.73	0.68	0.56
FGF22 binding	i	i	i	i	i	/	/	i
HNF4A DNA FP	/	-2.1	-1.0	-2.3	2.5	0.2	-1.9	-0.8
rRNA inh HTS	0	-16	12	5	9	/	/	9
